Assay outcomes: PubChem BioAssay, National Center for Advancing Translational Sciences (NCATS)
PINK1 expr mod – PINK1 expression modulation | hit rate 0.2% among 410,000 | PINK1 immunofluorescence, high-content cytometry, 24 h | Potency, µM (doses to about 76.6 µM), for the others: top-dose activation (PINK1 increase), hits mostly activators | AID 624263; active = well fitted activation curve with a large enough effect; inconclusive = small, poorly fitted or top-dose-only effect; inactive = flat fitted curve, though single readings scatter; cell line not stated here;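 also: potency is read from the fitted curve at half-maximal effect; % of control where 0% means no effect; nearly all actives have a fitted effect of over 65% in size; a mitochondrial uncoupler was the plate control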
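Decision-based qHTS: stable cells, 24 h exposure to five compound concentrations, CCCP as control. Fixed cells stained for PINK1 plus nuclear, mitochondrial and cell markers, cytometer read.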
TRPV1 potentiator – enhances activation of the human vanilloid receptor TRPV1; Q8NER1; TRPV1-expressing cells, Fluo-8 calcium influx, capsaicin EC20 potentiation; host cell line not named in the record; control for the full effect not named in the record; potentiation, % at 8.33 µM; hit rate 0.02% among 320,000; AID 540277; active means potentiation above 80%; inconclusive means 30% to 80%; inactive means below 30%; also: 0% is about no effect
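Fluo-8 calcium influx in TRPV1-expressing cells, kinetic read (ex 480/em 520 nm). Compound added and read 3 min for agonist activity, followed by capsaicin at EC20 final and 2 min further read for enhancement.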
Six1-Eya2 blk – blocks human Six1 binding to Eya2; Q15475+O00167; AlphaScreen GST-Six1/His-Eya2 binding, biochemical; hits give low values; control for the full effect not named in the record; activity change, % (no concentration beside the values); hit rate 0.56% among 360,000; in the data active = activity change below about -65%; inconclusive = about -30% to -65%; inactive = above about -30%; also: % is scaled to controls: 0 for no effect and ±100 for the full control effect; compound concentration not given in the record
Target sequence (O00167 whole entry, looked up): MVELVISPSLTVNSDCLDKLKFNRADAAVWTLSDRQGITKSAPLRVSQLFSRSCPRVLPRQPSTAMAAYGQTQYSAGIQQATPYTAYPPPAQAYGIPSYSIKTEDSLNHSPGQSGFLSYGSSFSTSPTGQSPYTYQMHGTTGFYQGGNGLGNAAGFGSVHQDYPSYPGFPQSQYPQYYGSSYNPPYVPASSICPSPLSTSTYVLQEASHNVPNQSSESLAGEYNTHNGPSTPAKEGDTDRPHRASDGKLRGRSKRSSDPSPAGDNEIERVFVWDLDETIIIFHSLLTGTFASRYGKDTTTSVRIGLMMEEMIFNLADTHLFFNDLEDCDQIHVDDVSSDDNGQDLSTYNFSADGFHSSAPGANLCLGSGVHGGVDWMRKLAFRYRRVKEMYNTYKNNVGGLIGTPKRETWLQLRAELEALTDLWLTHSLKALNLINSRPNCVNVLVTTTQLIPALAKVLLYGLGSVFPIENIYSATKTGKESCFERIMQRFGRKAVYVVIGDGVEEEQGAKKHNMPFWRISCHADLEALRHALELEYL
Target sequence (Q15475 whole entry, looked up): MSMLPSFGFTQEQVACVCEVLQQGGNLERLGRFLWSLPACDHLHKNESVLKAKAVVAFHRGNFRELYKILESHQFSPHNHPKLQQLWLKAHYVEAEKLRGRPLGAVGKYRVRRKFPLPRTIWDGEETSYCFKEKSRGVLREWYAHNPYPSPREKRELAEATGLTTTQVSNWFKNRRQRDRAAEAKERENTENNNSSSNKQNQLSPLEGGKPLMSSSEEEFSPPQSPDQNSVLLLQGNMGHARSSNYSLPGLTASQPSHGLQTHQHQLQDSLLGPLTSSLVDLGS
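AlphaScreen luminescence read after one hour at 37 °C in darkness. Pin-transferred compounds met GST-Six1 and His-Eya2 protein (5X stock 250 nM/500 nM) plus glutathione donor and Ni-chelate acceptor beads (5X, 50 ug/mL).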
CtBP-E1A inh – blocks the CtBP interaction with E1A | hit rate 0.49% among 340,000 | AlphaScreen GST-E1A/His-CtBP binding, 1536-well; hits give low values; control for the full effect not named in the record | activity change, % (test concentration not listed); in the data active means activity change below about -65%; inconclusive means about -30% to -65%; inactive means above about -30%; also: % is scaled to controls: 0 for no effect and ±100 for the full control effect; compound concentration not given in the record
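In 5 uL wells, 23 nL compound meets equimolar GST-E1A and His-CtBP (5X stock 125 nM each) for 2 h, 37 °C. Beads (5X, 50 ug/mL) then 1 h, 37 °C, dark.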
Sfp PPTase inh – blocks B. subtilis Sfp PPTase activity; Q9F4F7; Biochemical Sfp PPTase activity, qHTS; Potency, µM, for the others: max response, negative = inhibition, actives largely listed as inhibitors; hit rate 3.5% among 310,000; active = well fitted inhibition curve with a large enough effect; inconclusive = small, poorly fitted or top-dose-only effect, or another doubt; inactive = no such curve, though single readings can be large or run the other way;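 also: the enzyme is Sfp with the accession as filed and its product quenches rhodamine fluorescence; potency is read from the fitted curve at half-maximal effect; 0% = enzyme reaction without inhibitor and -100% = no enzyme wells; top concentration of the series not given in the record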
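Fluorescence-quenching assay: 15 nM Sfp-PPTase preincubated 15 min at room temperature with compound, then 5 uM rhodamine-CoA and 12.5 uM BHQ-2-labelled YbbR peptide added. Fluorescence (ex 525/em 598 nm) read at start and after 30 min; difference gives rate.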
D2 potentiator – potentiates the human D2 dopamine receptor allosterically; hit rate 0.23% among 360,000; P14416; DiscoveRx D2 beta-arrestin cells, luminescence, 90 min; 100% = 57 uM dopamine signal; potentiation, % (concentration not given with the values); active = potentiation of 50% or more; inconclusive = 30% to 50%; inactive = 30% or less;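 also: compound concentration not given in the record; tested on top of an EC20 dose of dopamine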
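PathHunter D2 cells, attached overnight at 37 deg C, received compound in DMSO plus dopamine at EC20 (50 nM final) for 90 min at 37 deg C. Beta-arrestin recruitment was read as luminescence after 1 h with detection reagent at ambient temperature.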
D2 agonist – human D2 receptor agonism in beta-arrestin assay. P14416. AID 624465. hit rate 0.084% among 360,000. DiscoveRx PathHunter D2 beta-arrestin, luminescence, 90 min; 100% = 57 uM dopamine signal. activation, % (test concentration not listed); in the data active = activation above about 40%; inconclusive = about 15% to 40%; inactive = below about 15%; also: compound concentration not given in the record; the text of the record calls up to 30% inactive
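DiscoveRx PathHunter D2 beta-arrestin cells (2,100/well) attached overnight, then compound-stimulated 90 min at 37 C in HBSS/10 mM HEPES/0.1% Tween-20 buffer; beta-galactosidase complementation read by luminescence after 1 h at ambient temperature. Dopamine 57 uM final (EC100) as control.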
Numbers without * were called inactive; ? = inconclusive; . = not tested or not shown; & = joins results of further samples; [ ] = remark or other dose.

item	mol	PINK1 expr mod	TRPV1 potentiator	Six1-Eya2 blk	CtBP-E1A inh	Sfp PPTase inh	D2 potentiator	D2 agonist
1	COC(=O)c1ccc(N(CC(=O)NCC2CCCO2)C(=O)CCC(=O)Nc2cc(C)on2)cc1 (centres undefined)	0.2%	-1	-1	-13	13%	-3	-0.8
2	c1ccc(NCC2OCc3ccccc3CO2)cc1	1.3%	7	1	0	-3%	-15	-2.4
3	N#Cc1cc([N+](=O)[O-])ccc1NCC1CCCO1 (centres undefined)	-0.5%	-6	-1	-2	13%	-7	1.7
4	CC(=O)c1sc(NC(=O)c2c(F)cccc2F)nc1C	0.5%	0	1	3	2%	-13	-2.5
5	COc1ccc2c(c1)c1c3n2CCN(C)C3=NCC1	0.9%	-2	0	-11	16%&9%	-4	-2.8
6	CCCCN(CC)CCCNC(=O)c1ccc(CSc2nc3ccncc3[nH]2)cc1	-0.6%	-13	4	4	-9%	-10	0.6
7	COc1ccc(Cc2nnc(NC(=O)C3CCN(C(=O)c4ccco4)CC3)s2)cc1	0.4%	3	2	-7	-3%	-3	-0.7
8	Cc1ccc(N(CCCCN2C(=O)c3ccccc3C2=O)C(=O)c2cccc([N+](=O)[O-])c2)cc1	-0.6%[38.3 µM]	5	-11	-15	6%	-6	-0.8
9	O=C(c1ccco1)N1CCN(S(=O)(=O)c2ccc(Oc3ccccc3)cc2)CC1	?	7	-13	2	5%	-2	-0.3
10	Cc1ccccc1-c1cc2nc(C)c(Cl)c(=O)n2[nH]1	0.2%	.	0	-3	.	-2	2.6
11	N#CCc1c(C#N)c(N)nc(Nc2ccccc2)c1C#N	20%	3	-2	-2	17%	-3	-0.9
12	Cc1ccc(S(=O)(=O)N2[C@@H](c3cccc(Cl)c3)C(C(=O)O)=CC[C@H]2c2cccs2)cc1	1.9%	-16	1	.	.	21	-2.9
13	O=C(NCCN1CCN(C(=O)Nc2ccccc2)CC1)Nc1ccccc1	1.3%	-2	5	0	-9%	-5	-1.4
14	COc1ccc(-c2cc3c(=O)n(CC(=O)Nc4cccc(Cl)c4)ncn3n2)cc1	-1.1%	5	6	2	12%	-3	0.1
15	O=C(COc1ccc(Cl)cc1Cl)NC(=O)NC1CCCC1	13%	-11	8	-3	.	-10	0.6
16	CC(=O)CSc1nc2cc3c(cc2cc1C#N)OCCO3	?	-7	-1	0	27%	-3	-1.8
17	CC1(c2ccc3ccccc3c2)NC(=O)N(CC(=O)N2CCN(S(=O)(=O)c3ccccc3F)CC2)C1=O (centres undefined)	2.0%	6	0	2	6%	3	-1.8
18	O=C(NCCS(=O)(=O)NCc1cccnc1)c1ccccc1	2.8%	10	10	3	.	-15	-0.8
19	CC(C)NC(=O)C1CCCN(c2nnc(-n3cccc3)s2)C1 (centres undefined)	2.9%	.	7	-4	14%	-3	-8.8
20	CCN(CC(=O)NCc1ccc(Cl)cc1)C(=O)CN1C(=O)NC(CC)(c2ccccc2)C1=O (centres undefined)	0.8%	-20	-1	1	14%	4	-0.2
21	Cc1ccc(SCC(=O)NCC2CCCO2)cc1 (centres undefined)	-0.3%	-13	5	2	-2%	-10	4.0
22	CC(C)(C)NC(=O)COc1ccc(-c2ccccc2)cc1	9.5%[38.3 µM]	-8	9	3	-4%	-7	-0.9
23	O=C(COc1ccccc1F)N1N=C(c2cccs2)CC1c1ccco1 (centres undefined)	-5.4%	-3	-6	-15	.	5	-0.7
24	Nc1ccccc1NC(=O)c1ccccc1	6.6%	6	1	-1	8%	-3	-0.4
25	O=C(COC(=O)c1ccccc1C(=O)c1ccc(Cl)c([N+](=O)[O-])c1)NC1CCCCCC1	-44%[inhibitor][38.3 µM]	-10	-5	0	-8%	-7	-3.6
26	CCN(CC)S(=O)(=O)c1cccc(C(=O)NCC(c2ccccc2)N(C)C)c1 (centres undefined)	-0.7%	-13	1	0	17%	-27	-1.5
27	CCCCC(=O)Nc1nn(CC)c2nc3c(C)cccc3cc12	3.3%	-12	18	19	7%	-4	2.0
28	C=CCNC(=S)NNC(=O)c1csc(C)c1CC	4.7%[38.3 µM]	8	-2	4	21%	-9	-5.4
29	COn1c(SCc2cccc(Cl)c2)nc2ccccc2c1=O	18%[38.3 µM]	10	19	22	-26%	2	-2.6
30	O=C(OCC(=O)N1CCOCC1)c1cc(F)c(F)cc1Cl	-2.1%	5	4	1	13%	-5	-0.8
31	COC(=O)C(Cc1ccc(OC(=O)c2ccccc2Cl)cc1)N1Cc2ccccc2C1=O (centres undefined)	-3.0%	-2	-2	-12	-13%	-31	0.6
32	O=C(NCc1ccncc1)c1c(F)c(F)c(F)c(F)c1F	-1.4%	14	-4	-1	16%	0	-2.6
33	COC(=O)c1cc2nc(-c3ccc(C)cc3)cc(C(F)(F)F)n2n1	11%	-2	16	4	-4%	-12	-4.7
34	Cc1cc(C)cc(N(CC(=O)Nc2ccccc2-c2ccccc2)S(=O)(=O)c2ccccc2)c1	1.2%	30	11	8	-3%	-5	0.6
35	O=C(O)c1cc(-c2ccc(Cl)c(Cl)c2)n(-c2ccccc2)n1	0.6%	12	14	0	12%	-4	-4.2
36	COc1ccc(S(=O)(=O)N2CCC(NC(=O)OCc3c(Cl)cccc3Cl)CC2)cc1	4.9%	6	-6	-2	9%	-7	-1.9
37	COc1ccc(NC(=O)C(c2ccc(C)cc2)N(C)C(=O)CC2NC(=O)NC2=O)cc1 (centres undefined)	0.2%	16	7	17	-9%	-6	4.6
38	CC(C)(CNC(=O)c1sc2cc(Cl)ccc2c1Cl)N1CCOCC1	1.6%	-3	-1	4	.	-25	-1.8
39	O=C(Nc1cccc(Cl)c1Cl)c1snnc1-c1ccccc1	3.1%	3	-6	-1	?	-2	-0.9
40	O=C(NCC(=O)N(Cc1ccccc1)C(C(=O)NCC1CCCO1)c1ccccc1)c1cccs1 (centres undefined)	.	5	-2	6	16%	-17	-2.1
41	CC(C#Cc1ccc2c(c1)COc1c3ccccc3nn1-2)OC(C)(C)C (centres undefined)	0.3%	-28	3	5	.	-7	-1.1
42	CCOC(=O)Cc1nnc2c(Nc3ccc(Cl)cc3)nc3nonc3n12	45µM*	-8	4	-2	-4%	-21	-0.8
43	Cn1c(SCc2ccccc2)nnc1-c1ccco1	-0.2%	-10	-6	1	13%	-6	-0.4
44	COc1cc(C(C)=O)ccc1OCc1nnc(-c2ccccc2Br)o1	-1.7%	-11	2	0	4%	4	3.4
45	COC(=O)Cc1[nH]n(-c2ccccc2)c(=O)c1C=Nc1ccc(C)cc1	3.0%	-10	2	-4	-3%	-10	-2.1
46	O=C(NNC(=O)c1ccc(-c2ccccc2)cc1)Nc1ccccc1	1.7%	.	15	0	.	-7	-4.1
47	O=C(Nc1cccc(O)c1)c1ccc(NC(=O)C2CCCO2)cc1 (centres undefined)	3.4%	3	?	?	15%	-1	9.2
48	Cc1nc2ccc(NC(=O)NCc3ccco3)cc2s1	0.7%[38.3 µM]	16	-10	-22	0%	-5	-1.5
49	Nc1ccccc1C(=O)Nc1ccc(Cl)cc1Cl	2.7%	16	-5	16	-4%	-5	-2.2
50	Cc1ccc(S(=O)(=O)N2[C@H](c3ccc(Cl)cc3)CC(=O)[C@@H]3CN(S(=O)(=O)c4ccccc4C)[C@H](c4ccc(Cl)cc4)C[C@@H]32)cc1	5.9%	.	-5	1	.	1	4.0
51	Cc1nnc(Oc2ccc([N+](=O)[O-])cc2)c2ccccc12	4.4%	-18	-3	3	4%	2	0.4
52	O=C(NN1CCOCC1)c1cc(-c2ccc(Cl)c(Cl)c2)nc2ccccc12	14%	1	-6	8	?	-17	-1.2
53	Cc1cc(C)cc(C(=O)NCC(=O)N2CCC(C(N)=O)CC2)c1	-1.2%	.	4	5	.	1	1.2
54	CCn1c(=O)n(CCc2ccccc2)c(=O)c2c3c(sc21)CCCC3	?	-13	2	4	-4%	7	0.7
55	CC(C)(C)c1ccc(C(=O)C2CCCN(C(=O)c3ccccn3)C2)cc1 (centres undefined)	-1.5%	-12	18	0	-4%	-2	6.6
56	Cc1cc(CC(=O)O)n(C)c1C(=O)c1ccc(Cl)cc1	-0.2%	3	0	0	26%&3%&-5%&30%	7	-2.3
57	O=C(NCc1ccco1)C1CCN(S(=O)(=O)c2ccc(-n3cnnn3)cc2)CC1	-1.9%	-7	6	2	0%	-10	-1.1
58	CC(C)NS(=O)(=O)c1ccc(CCC(=O)NCc2ccccn2)cc1	-1.1%	-5	2	0	22%	-9	-4.4
59	Cn1c(=O)n(CC(=O)NCC2CCCO2)c(=O)c2c3c(sc21)CCCC3 (centres undefined)	-1.4%	1	9	7	10%	4	-4.2
60	O=C(N/N=C/c1c(-c2ccccc2)[nH]c2ccccc12)c1cccnc1	12%	-3	-12	-20	-20%	-16	2.0

Structural class: the compounds so far containing a tert-butyl group (3)
item	mol	PINK1 expr mod	TRPV1 potentiator	Six1-Eya2 blk	CtBP-E1A inh	Sfp PPTase inh	D2 potentiator	D2 agonist
22	CC(C)(C)NC(=O)COc1ccc(-c2ccccc2)cc1	9.5%[38.3 µM]	-8	9	3	-4%	-7	-0.9
41	CC(C#Cc1ccc2c(c1)COc1c3ccccc3nn1-2)OC(C)(C)C (centres undefined)	0.3%	-28	3	5	.	-7	-1.1
55	CC(C)(C)c1ccc(C(=O)C2CCCN(C(=O)c3ccccn3)C2)cc1 (centres undefined)	-1.5%	-12	18	0	-4%	-2	6.6

(more compounds)
item	mol	PINK1 expr mod	TRPV1 potentiator	Six1-Eya2 blk	CtBP-E1A inh	Sfp PPTase inh	D2 potentiator	D2 agonist
61	COc1cccc(C(=O)Oc2ccc3ccc(O)cc3c2)c1	11%	3	1	-1	13%	3	-0.9
62	Cc1ccc(C(=O)CSc2n[nH]c(C)n2)cc1	-1.9%	-2	-4	8	89µM*	-4	-2.3
63	O=C(NCc1n[nH]c(=S)n1-c1ccc(F)cc1)c1ccc(S(=O)(=O)N2CCOCC2)cc1	0.8%	-7	1	.	45µM*	-8	5.5
64	Cc1ccc(S(=O)(=O)NCCC(=O)NCC(c2cccs2)N2CCOCC2)cc1 (centres undefined)	0.5%	-13	6	0	.	-4	-0.8
65	Fc1ccccc1Oc1nc(-c2ccncc2)nc2ccccc12	1.1%	-23	-1	.	-16%	-18	-4.3
66	COc1ccc(C(=O)C[n+]2cccc(C)c2)cc1	0.6%	-15	12	0	-9%	-11	-0.9
